ClpP mod – qHTS Assay for Activators of ClpP; ATP-dependent Clp protease proteolytic subunit (Bacillus subtilis (strain 168)), P80244; 340,000 tested, 1.9% active; purified B. subtilis ClpP, FRET peptide cleavage, 20 min; Potency, µM (series often up to 57.5 µM), without a hit: top-dose activity change, negative = active; AID 651965, 2013; active = well fitted falling curve with a large enough effect; inconclusive = small, poorly fitted or top-dose-only effect; inactive = no such curve, though single readings can be large or run the other way; note: the source files actives as falling curves though it sought activators and does not explain the sign; nearly all actives have a fitted effect of over 65% in size; many hits overshoot -100%
Target sequence (P80244 whole entry, looked up): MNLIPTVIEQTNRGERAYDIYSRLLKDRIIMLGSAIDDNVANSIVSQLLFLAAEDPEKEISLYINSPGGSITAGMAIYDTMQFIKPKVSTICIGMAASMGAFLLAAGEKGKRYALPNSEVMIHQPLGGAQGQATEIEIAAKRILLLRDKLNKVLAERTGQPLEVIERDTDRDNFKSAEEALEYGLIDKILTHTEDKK
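Purified B. subtilis ClpP, 10 microg/mL final in Tris/HCl pH8 with KCl, BSA, glycerol and Tween-20, cleaved an Abz/nitrotyrosine-quenched decapeptide. Fluorescence (ex 320, em 430) was read at 0 and 20 min at room temperature. Delta was normalized to 5.8 microM ADEP and DMSO/no-enzyme controls.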
Numbers without * were called inactive; ? = inconclusive. Potency is the fitted concentration of half-maximal effect. An excerpt. The share of hits here may be higher or lower than overall.

SMILES | ClpP mod
Cc1cccc(C)c1NC(=O)CN(Cc1ccccc1)Cc1ccccc1 | -1.2%
CCCSc1ncc(Cl)c(C(=O)Nc2sc3c(c2C(=O)NCCCOC)CCCC3)n1 | ?
CC(O)COCC1OC2OC3C(COCC(C)O)OC(OC4C(COCC(C)O)OC(OC5C(COCC(C)O)OC(OC6C(COCC(C)O)OC(OC7C(COCC(C)O)OC(OC8C(COCC(C)O)OC(OC1C(OCC(C)O)C2OCC(C)O)C(OCC(C)O)C8OCC(C)O)C(OCC(C)O)C7OCC(C)O)C(OCC(C)O)C6OCC(C)O)C(OCC(C)O)C5OCC(C)O)C(OCC(C)O)C4OCC(C)O)C(OCC(C)O)C3OCC(C)O (stereo not drawn) | 1.7%
Cn1c(=O)c2cc(NC(=O)CCc3ccccc3)ccc2n1Cc1cccc(C(F)(F)F)c1 | 4.5%
CCCS(=O)(=O)NC(=O)C1(C)CCN1C(=O)Cc1ccc(Cl)cc1Cl (stereo not drawn) | -1.1%
COc1ccc(Nc2nc(NC(C)C)nc3ccsc23)cc1OC | -6.9%
O=S1(=O)CC(N2CCN(CCO)CC2)CN1Cc1cn(Cc2ccc(Cl)cc2)nn1 (stereo not drawn) | 1.5%
Cc1c(Br)cccc1NC(=O)C1(C)CCN1Cc1ccccc1OC(F)F (stereo not drawn) | 1.5%
OC(c1ccc(F)c(F)c1)c1nc(-c2cc(F)cc(F)c2)cs1 (stereo not drawn) | -3.3%
Cc1ccc(S(=O)(=O)N2[C@H](CC(=O)c3ccc(F)cc3)OC[C@@H]2C)cc1 | 0.4%
Cc1cc2nc(-c3ccccc3)c(Cc3ccsc3)n2c(C)c1Br | -7.5%
O=C(Nc1ccc(F)c(Cl)c1)C1Cc2c(-c3ccco3)ccnc2O1 (stereo not drawn) | -7.0%
Cc1nnc(NC(=O)C2CCN(C(=O)c3ccsc3)CC2)s1 | 1.7%
CN(C)c1ccc(C=Cc2ccnc3ccccc23)cc1N | -5.6%
CCOC(=O)[C@]12CCCC=C1N(CCc1ccc(OC)c(OC)c1)C(=O)[C@H](CC(=O)N1CCCCC1)C2 | -2.2%
O=C(NCCN1CCC(n2c(=O)[nH]c3ccccc32)CC1)c1ccc(F)cc1F | -2.2%
CCCS(=O)(=O)NC(=O)C1(C)CCN(C(=O)c2ccc(F)cc2Cl)C1 (stereo not drawn) | -0.6%
O=C(NC(c1ccc(Cl)cc1)c1cnccn1)C1CCN(CCCOc2ccccc2)CC1 (stereo not drawn) | -0.9%
COc1ccc(Cc2c(C3CCCCC3)nc3c(Cl)cc(C(F)(F)F)cn23)c(C)c1 | -5.3%
O=S1(=O)CC(N2CCN(c3ncccn3)CC2)CN1Cc1ccc(F)cc1 (stereo not drawn) | -1.6%
CCCCN(CCCC)c1ccc(/C=C/c2ccnc3ccccc23)cc1 | 0.7%
CC(C)CC(N)c1csc(Nc2ccc(C(=O)NCCO)cc2)n1 (stereo not drawn) | -22%
CN1CCN(C(=O)c2cc3c(c(-c4cccc(C#CC(C)(C)O)c4)n2)[C@H](CCO)N(S(=O)C(C)(C)C)C3)CC1 (stereo partly drawn) | -5.0%
CCC(=O)N1CCCC1(C)C(=O)NCc1ccc(SC)cc1 (stereo not drawn) | -2.0%
Cc1cnc(/C=C/c2ccc(N(C)C)cc2)cn1 | 4.8%

Brought forward from above: two compounds, then new ones.
SMILES | ClpP mod
CCC(=O)N1CCCC1(C)C(=O)NCc1ccc(SC)cc1 (stereo not drawn) | -2.0%
Cc1cnc(/C=C/c2ccc(N(C)C)cc2)cn1 | 4.8%
CCCNC(=O)C1(C)CCCN(Cc2c(F)cccc2F)C1 (stereo not drawn) | -0.1%
CN(C)CCN1CCN([C@H]2CS(=O)(=O)N[C@@H]2COCc2ccccc2)CC1 | -15%
O=S1(=O)CC(N2CCCCC2)CN1CCc1ccccc1 (stereo not drawn) | -2.4%
CCN(CC)C(=O)c1cccc(-c2csc(C(O)(c3ccccc3)C(F)(F)F)n2)c1 (stereo not drawn) | -0.5%
CCc1nc2ccc(C(=O)Nc3ccc(OC)c(OC)c3)cn2c1N(CCC(C)C)CCN(C)C | 2.5%
CC(=O)Oc1ccc(Cn2c(C)c(C(=O)NC3CC3)sc2=O)cc1 | 0.4%
O=C(Nc1ccccc1C(F)(F)F)c1nc(S(=O)(=O)Cc2ccccc2F)ncc1Cl | 5.4%
O=C(c1cc2c(c(-c3cccc(-c4ccncc4)c3)n1)[C@H](CCO)N(C(=O)c1ccc3c(c1)OCO3)C2)N1CCOCC1 | 0.8%
O=C(Nc1ccc2c(c1)OCCO2)C(c1cc2ccccc2o1)N1CCN(c2ccc(C(F)(F)F)cn2)CC1 (stereo not drawn) | ?
CN(Cc1ccc(Cl)c(Cl)c1)C(C(=O)NCc1ccccc1)c1ccc(C(F)(F)F)cc1 (stereo not drawn) | -0.9%
CC(=O)ON=C1C=CC(=C(C#N)c2ccccc2)C=C1 | 0.0%
CC1Oc2ccc(C#N)cc2N(Cc2cccc(F)c2)C1=O (stereo not drawn) | -2.8%
CSc1c2c([nH]c(=O)c1C#N)-c1ccccc1CC2 | 5.6%
CCc1nc2c(OCCc3cccc(OC)c3)cccn2c1N(C)C(=O)c1cccs1 | -2.6%
C=Cc1ccc(Cn2c(C)c(C(=O)NCc3cccc(C(F)(F)F)c3)sc2=O)cc1 | 0.1%
O=C1NC[C@H](CC2CCCCC2)N(CCC23CC4CC(CC(C4)C2)C3)C1=O | -3.4%
COC(=O)[C@@]12C[C@@H](CC(=O)NCc3ccc(OC)c(OC)c3)C(=O)N(Cc3ccccc3)C1=CCC(C)(C)C2 | -0.1%
COc1cccc(NC(=O)C2(C)CCN2Cc2ccc(-c3ccccc3)o2)c1 (stereo not drawn) | -16%
O=C(NCc1ccccc1)C(C1CC1)n1c(-c2cccs2)nc2ccccc21 (stereo not drawn) | 4.5%
Cc1nc2ccccc2nc1/C=C/c1ccc(N(C)C)cc1 | 0.7%
CCOC(=O)[C@]12CCC=C1N(Cc1ccc3c(c1)OCO3)C(=O)[C@H](CC(=O)N1CCCCC1)C2 | 3.4%
O=C(C[C@H]1CC[C@H]2[C@@H](COC[C@H](O)CN2Cc2ccccc2)O1)NCCCN1CCOCC1 | -0.3%
O=C1c2ccccc2C(c2nnnn2-c2ccc3c(c2)OCCO3)N1CCOc1ccccc1 (stereo not drawn) | -5.2%
CC(=O)C1=CCC(c2ccc(C)cc2)N(S(=O)(=O)c2ccc(Cl)cc2)C1 (stereo not drawn) | -1.0%
C/C=C/c1cccc(-c2nc(C(=O)NC3CCC3)cc3c2[C@@H](CCO)N(S(=O)C(C)(C)C)C3)c1 (stereo partly drawn) | -0.6%
SMILES | ClpP mod
CCCCCCCCCCCC[n+]1ccc(C)c2ccccc21 | -18%
CC[C@@H]1CCC[C@@H](O)[C@@H](C)C(=O)O[C@H](C)[C@@H](C)C/C=C(C)/C(OC)=C\C(=O)N(C)C([C@@H](C)CC)C(=O)N(C)[C@@H](C(C)C)C(=O)N(C)[C@@H](COC)C(=O)N2CCC[C@H]2C(=O)N(C)[C@@H](C(C)C)C(=O)N2CCC[C@H]2C(=O)O1 (stereo partly drawn) | -0.8%
COc1cccc(NCc2nnc(SC(C(=O)N(C)C)c3ccccc3)n2C2CCCCC2)c1 (stereo not drawn) | -0.4%
O/N=C(/CBr)c1ccc2ccccc2c1 | -21%
CN1CCN(C(=O)c2cccc(-c3ccc4nccn4c3)c2)CC1 | -8.4%
CC1(C(=O)Nc2ccccc2)CCN1C(=O)CCc1ccc(Cl)cc1Cl (stereo not drawn) | -7.7%
Cn1c(=O)c2cc(NC(=O)CCc3cccc(Cl)c3)ccc2n1Cc1cccc(C(F)(F)F)c1 | 4.6%
CCOC(=O)C(c1nc2ccccc2[nH]1)n1c(-c2ccccn2)nc2ccccc21 (stereo not drawn) | -17%
COc1ccccc1CNC(=O)c1cc(-c2cc(Cl)ccc2C)n[nH]1 | -0.6%
CC1=C(C(=O)N2CCCCCC2)CC(CC(=O)NCC2CCCCC2)C(=O)N1CCCN1CCCC1=O (stereo not drawn) | 0.0%
O=C(COc1ccc2ccccc2c1)Nc1ccc(O)c(-c2nc3ccccc3o2)c1 | -4.4%
O=C(C(=O)N1CCN(C(=O)OCc2ccccc2)CC1)c1cccs1 | 1.0%
O=C(/C=C/[C@H]1O[C@@H](n2cnc3c(NC(=O)c4ccccc4)ncnc32)[C@H](O)[C@@H]1O)NC1CCCCC1 | -2.4%
O=C(Nc1nnc([C@@H]2C[C@H](O)[C@@H](CO)O2)s1)c1ccc(Oc2ccccc2)cc1 | -6.7%
CCn1nnnc1Sc1nc(C)nc2scc(-c3ccccc3)c12 | -2.0%
C(=Nc1cnc2ccccc2c1)c1cccnc1 | 4.0%
Cc1cc2oc(=O)cc(CN3CCCCCCC3)c2cc1Cl | -3.5%
Cc1cc(Cl)ccc1OCC(=O)Nc1cccc(-c2nc3ccccc3o2)c1 | ?
CC(=O)Nc1ccc(C(=O)N2CCCCC2c2cc(C(=O)N3CCOCC3)no2)cc1 (stereo not drawn) | -2.5%
O=C(c1[nH]c(C(F)(F)F)nc1-c1ccccc1)N1CCN(Cc2c(F)cccc2Cl)CC1 | -0.6%
Nc1nc[nH]c(=O)c1N | -28%
O=C(COc1ccccc1C(=O)Nc1ccccc1)Nc1cccc(Br)c1 | -23%
CN1CCC(N2CCN(C3CN(Cc4cn(Cc5ccc(C(F)(F)F)cc5)nn4)S(=O)(=O)C3)CC2)CC1 (stereo not drawn) | -0.8%
OCC[C@@H]1C[C@H](O)[C@@H](O)[C@]2(OCc3ccc(CO)cc32)O1 | -1.0%
COc1ccc(/C=C/c2nnc(NC(=O)COc3ccc(Cl)cc3)s2)cc1 | ?
SMILES | ClpP mod
COc1ccc(CNC(=O)C[C@@H]2CC[C@@H](NS(=O)(=O)c3cccc(OC)c3)[C@@H](CO)O2)cc1 | -0.1%
O=C1C(=O)c2cccnc2-c2ncccc21 | 1.0%
CCOC(=O)c1c(-c2ccc(OC)cc2)oc2c1C(OC(C)=O)CCC2 (stereo not drawn) | 4.6%
CCc1nc2c(OCc3ccc(F)cc3)cccn2c1N(C)C(=O)COc1ccccc1 | -1.4%
Cc1cc(F)ccc1C(O)c1ncc(-c2ccc3ccccc3c2)[nH]1 (stereo not drawn) | 5.4%
CC(=O)Nc1ccc(NC(=O)C2Cc3c(-c4ccc5c(c4)OCO5)ccnc3O2)cc1 (stereo not drawn) | 4.3%
O=C(Nc1ccc(F)c(Cl)c1)Nc1nnc([C@H]2C[C@H](O)[C@@H](CO)O2)s1 | -7.6%
CN(C)CCNC(=O)C1Cc2c(-c3ccccc3Oc3ccccc3)ccnc2O1 (stereo not drawn) | -3.0%
CCc1nc2ccc(C(=O)NCCCn3ccnc3)cn2c1N(C)Cc1ccc(OC)cc1 | 0.1%
CSc1ccc(-c2cccc3nncn23)cc1 | 4.5%
Cc1cnc(C(=O)Nc2c(-c3ccccc3)[nH][nH]c2=O)cn1 | -1.7%
COc1ccccc1CCC(=O)Nc1ccc2c(c1)c(=O)n(C)n2C | 4.3%
O=C(COC(=O)CNC(=O)C1CCCCC1)NC1CCCC1 | 0.1%
COc1cccc(-c2ncn(CCc3ccccc3OC)c2C(C)C)c1 | 0.9%

Some of the entries above in a different format.
Structure	ClpP mod
COc1ccccc1CNC(=O)c1cc(-c2cc(Cl)ccc2C)n[nH]1	-0.6%
CC1=C(C(=O)N2CCCCCC2)CC(CC(=O)NCC2CCCCC2)C(=O)N1CCCN1CCCC1=O (stereo not drawn)	0.0%
O=C(COc1ccc2ccccc2c1)Nc1ccc(O)c(-c2nc3ccccc3o2)c1	-4.4%
O=C(C(=O)N1CCN(C(=O)OCc2ccccc2)CC1)c1cccs1	1.0%
O=C(/C=C/[C@H]1O[C@@H](n2cnc3c(NC(=O)c4ccccc4)ncnc32)[C@H](O)[C@@H]1O)NC1CCCCC1	-2.4%
O=C(Nc1nnc([C@@H]2C[C@H](O)[C@@H](CO)O2)s1)c1ccc(Oc2ccccc2)cc1	-6.7%

Screening data deposited in PubChem by National Center for Advancing Translational Sciences (NCATS).
